Source: PubChem
Vaccinia Venus: inhibitors of vaccinia virus (Venus reporter); hit rate 0.46% among 330,000; Vaccinia virus Venus reporter expression, fluorescence; Potency, µM (highest dose often 36.5 µM), for inactives: top-dose activity change, negative = inhibition, actives largely listed as inhibitors; active means well fitted inhibition curve with a large enough effect; inconclusive means small, poorly fitted or top-dose-only effect; inactive means no such curve, though single readings can be large or run the other way; tested in A549 cells; also: nearly all actives have a fitted effect of over 30% in size; inactives centre near -10
VACV mCherry inh: vaccinia inhibition (mCherry reporter) | Vaccinia virus mCherry reporter infection, fluorescence; about a quarter of the inactives have no number | Potency, µM (titrated, usually from 36.5 µM), for inactives: at the highest dose activity change, negative = inhibition, usual class: inhibitors | hit rate 0.63% among 310,000; active = well fitted inhibition curve with a large enough effect; inconclusive = small, poorly fitted or top-dose-only effect; inactive = no such curve, though single readings can be large or run the other way; tested in A549 cells; also: nearly all actives have a fitted effect of over 35% in size; inactives centre near -10
* marks the source's active call; other numbers are inactive results; i = inactive; ? = inconclusive; / = not tested or not shown; & = joins results of further samples; [ ] = remark or other dose. % is scaled to controls: 0 for no effect and ±100 for the full control effect; potency is read from the fitted curve at half-maximal effect.

Compound	Vaccinia Venus	VACV mCherry inh
O=C(CNS(=O)(=O)c1cccs1)N1CCN(c2ccccc2F)CC1	-2%&-5%	1%&-8%
CCCSc1ccc2nc(-c3ccccc3)cn2c1	-14%	-21%
Cc1ccc(OCCSc2nnc(-c3cccs3)o2)cc1	-6%	-5%
COc1ccc(S(=O)(=O)NC(C)C(=O)Nc2ccc3c(c2)OCO3)cc1OC (centres undefined)	1%	-5%
CCC(CC)NC(=O)c1cc2c(C)nn(Cc3ccccc3Cl)c2s1	-21%	-3%
COc1ccc(S(=O)(=O)NCCc2sc(-c3ccccc3)nc2C)cc1OC	4%	6%
O=C(CCn1nnc(-c2cccs2)n1)NC1CCCCC1	-10%	-4%
CC1CCN(S(=O)(=O)c2ccc(C(C)C)cc2)CC1	-9%	?
CC1CCN(c2ccc([N+](=O)[O-])cc2C(=O)O)CC1	2%	-3%
O=C(CN1CCN(Cc2ccccc2Cl)CC1)N/N=C/C=C/c1ccco1	-24%	?
COc1ccc(/C=C/C(=O)Oc2cccc(/C=N/NC(=O)c3cccc(F)c3)c2)cc1	-3%	i
CC1CC(C)CN(C(=O)CN2C(=O)NC(C)(C)C2=O)C1 (centres undefined)	6%	-8%
CCc1cccc(N2C(=O)N(CC(=O)NCc3cccc(OC)c3OC)c3ccccc3S2(=O)=O)c1	-24%	-17%
Cc1c(C(=O)N(C)C2CCOC2)sc2ncnc(NCC3(c4ccccc4)CCOCC3)c12 (centres undefined)	-2%	-1%
N#Cc1cc2c(nc1SCC(=O)Nc1ccc(C(F)(F)F)cc1)C1CCN2CC1	-18%[7.34 µM]	-16%[7.34 µM]

Exported with each value named: entries from further up.
canonical_smiles: CCc1cccc(N2C(=O)N(CC(=O)NCc3cccc(OC)c3OC)c3ccccc3S2(=O)=O)c1
  Vaccinia Venus = -24%; VACV mCherry inh = -17%
canonical_smiles: Cc1ccc(OCCSc2nnc(-c3cccs3)o2)cc1
  Vaccinia Venus = -6%; VACV mCherry inh = -5%
canonical_smiles: CC1CC(C)CN(C(=O)CN2C(=O)NC(C)(C)C2=O)C1 (centres undefined)
  Vaccinia Venus = 6%; VACV mCherry inh = -8%

More results:
Compound	Vaccinia Venus	VACV mCherry inh
Cc1ccccc1OCC(=O)Nc1ccc(-c2nc3cc(Cl)cc(Cl)c3o2)cc1	1%	-4%
CCOc1cc(C2c3c(oc4ccccc4c3=O)C(=O)N2c2ccccn2)ccc1O (centres undefined)	-11%	-19%
CCc1cc2cc(C)cc(C)c2nc1SCC(=O)N1CCN(C(=O)c2ccco2)CC1	-15%	/
FC(F)(F)c1cnc2c(c1)Nc1ccccc1S2	-15%	/
O=C(c1ccc(CS(=O)Cc2ccccc2Cl)o1)N1CCN(c2cccc(Cl)c2)CC1 (centres undefined)	-24%	-12%
O=C1OC(CO)CN1Cc1ccccc1 (centres undefined)	-5%	-9%
CCOC(=O)c1ccc(N/C=C/C(=O)c2ccccc2)cc1	-10%	-11%
Cc1ccc(S(=O)(=O)N2[C@@H](Cc3ccccc3)CO[C@H]2CC(=O)c2ccccc2)cc1	?	i
Cc1ccccc1C(=O)c1cccn1CC(=O)NC(C)CCc1ccccc1 (centres undefined)	-8%[7.34 µM]	-8%[7.34 µM]
COc1cc(C(=O)Nc2ccc(NC(=O)C(C)C)nc2)cc(OC)c1OC	-9%	i
CC(C)(C)NCCCCOc1ccccc1F	-12%	i
O=C(Nc1ccc(N2CCOCC2)c(Cl)c1)c1ccccc1Cl	0%	-3%
CSc1ccc(COC(=O)c2cc([N+](=O)[O-])ccc2N2CCOCC2)cc1	?	?
Cc1ccc(N(Cc2cc(=O)[nH]c3ccccc23)C(=O)CCl)c(C)c1	?	?
CN(C)S(=O)(=O)N(CC(=O)Nc1ccc(Br)cc1F)c1ccccc1	-6%	-14%
COCCNC(=O)C1CC(=O)N(CCc2ccccc2)C1 (centres undefined)	-16%	-3%
Cc1ccc(-c2noc(CN(C(=O)COc3cc(C)cc(C)c3C)C(C)C)n2)cc1	2%	-2%
COc1ccc(NC(=O)CSCC(=O)N2CCN(c3cccc(C(F)(F)F)c3)CC2)cc1	-9%	i
Cc1ncc2c(c1CNS(=O)(=O)N(C)C)CCN(C(=O)/C=C/c1ccccc1Cl)C2	-13%	-20%
COc1cccc(/C=C/C(=O)c2ccc(C)c([N+](=O)[O-])c2)c1	-3%	i
CCC(=NCc1ccco1)c1c(O)n(-c2ccccc2C)c(=O)[nH]c1=O	-9%	i
Cc1ccc(S(=O)(=O)N2CC3(O)CN(C(=O)OC(C)C)N(C(=O)OC(C)C)CC3(OC(=O)NC3CC3)C2)cc1 (centres undefined)	12%	1%
CCc1ccc(NC(=O)c2cc(C)nn2-c2ccccc2)cc1	-17%&-14%	?
Cc1nnc(NC(=O)C2(c3ccccc3)CCOCC2)s1	-4%	-11%
CCC(CO)NCCNC(CC)CO (centres undefined)	-7%&-1%	-18%
CCCOC(=O)Nc1cc(OC)c(Cl)cc1OC	-14%	-9%
CC1(C(=O)NS(=O)(=O)c2ccc(Cl)cc2)CCN1C(=O)CCc1cccs1 (centres undefined)	-5%	i
NC(=O)CSc1nnc(-c2cccc(S(=O)(=O)N3CCOCC3)c2)n1C1CCCCCC1	-1%	-14%
COc1ccccc1CNc1nc(Nc2ccccc2OC)c2sccc2n1	-10%	6%
O=c1[nH]cnc2ccsc12	1%	-7%
Cc1cc(Cn2nc(-c3ccccc3C)cc2C(=O)O)on1	-9%	i
O=c1oc(/C=C/c2ccccc2)nc2ccccc12	-13%	-13%
COCCNC(=O)c1cc2n(n1)CCCN(Cc1ccc(C)cc1)C2=O	-12%	-20%
COc1ccc(Cn2c(=O)sc3ccccc3c2=O)cc1	-2%	-28%
O=C(COc1ccccc1Br)N1CCN(C(=O)c2ccco2)CC1	-11%	-9%
Cc1ccc(NC(=O)Nc2c(Cl)cccc2Cl)cn1	?	-29%
CCN1CCN(c2ccc(S(=O)(=O)N3CCCCC3)cc2NC(=O)/C=C/c2cc(OC)ccc2OC)CC1	-14%	-25%
O=C(CSc1ccccc1)Nc1cccc(S(=O)(=O)N2CCCC2)c1	-11%	i
COC(=O)C[C@H]1CC[C@H](NS(=O)(=O)c2cn(C)cn2)[C@@H](CO)O1	-13%	-9%
CC(CCc1ccc(O)cc1)NCCc1ccc(O)c(O)c1 (centres undefined)	-11%	-14%
CC(=O)c1ccc(-c2nnc(CCC(=O)N(C)Cc3cccc4cnccc34)o2)s1	-11%	-1%
COc1ccc(OC)c(S(=O)(=O)NCCc2cn3ccsc3n2)c1	0%	-11%
Cc1ccc(S(=O)(=O)N2CCCOC2)cc1	-7%	i
O=C(NCC1CC1)c1cc(-c2ccccc2)nn1CC1CC(c2cccc([N+](=O)[O-])c2)=NO1 (centres undefined)	-9%	-8%
COc1ccccc1N1CCN(c2ccc([N+](=O)[O-])nc2)CC1	4%	-14%

Among those listed so far, two have bromine:
Compound	Vaccinia Venus	VACV mCherry inh
CN(C)S(=O)(=O)N(CC(=O)Nc1ccc(Br)cc1F)c1ccccc1	-6%	-14%
O=C(COc1ccccc1Br)N1CCN(C(=O)c2ccco2)CC1	-11%	-9%

(next part)
Compound	Vaccinia Venus	VACV mCherry inh
O=C(CCC(=O)N1CCOc2ccccc21)N1CCCCC1	-16%	i
COc1cc(N2CCOCC2)ccc1/C=C1\C(=O)NC(=O)N(Cc2cccs2)C1=O	4%	5%
C=CCNC(=S)Nc1nc2c(cc1C(=O)OCC)COC(C)(C)C2	6%	-7%
O=C(COC(=O)C1=COCCO1)Nc1ncc(C(F)(F)F)cc1Cl	-8%	-12%
C/C(=N\NC(=O)c1nn(C)c(C)c1Br)c1cccc(NC(=O)c2ccc(F)cc2)c1	-13%	-13%
COC(=O)c1ccc(NC(=O)CN(c2cccc(C(F)(F)F)c2)S(C)(=O)=O)cc1	2%	-5%
COc1cccc(N(C(=O)CNC(=O)c2ccco2)C(C(=O)NC2CCCC2)c2cccnc2)c1 (centres undefined)	-10%	i
O=C(COC(=O)/C=C/c1ccc2c(c1)OCO2)NCc1ccc(F)cc1	-12%	i
Cc1cc(C)c(C(N)=O)c(Nc2cccc3ccccc23)n1	-13%	/
C[C@H](CO)N1C[C@H](C)[C@@H](CN(C)Cc2ccncc2)Oc2c(NS(=O)(=O)c3ccc(Cl)cc3)cccc2C1=O	0%	i
Clc1ccc(-c2nnc(-c3cccc4ccccc34)o2)cc1Cl	-1%[7.34 µM]	i[7.34 µM]
COc1ccc(S(=O)(=O)NCCc2cc3ccc(C)c(C)c3[nH]c2=O)cc1	-3%&-15%	-14%&-10%
Cc1cccc(NC(=S)N2CC3CC(C2)c2cccc(=O)n2C3)c1C (centres undefined)	-9%	-15%
Cc1ccccc1OCCC(=O)N1CCN(S(=O)(=O)c2ccc(Br)cc2)CC1	-28%	-10%
c1ccc(OCCn2c(COc3ccccc3)nc3ccccc32)cc1	-13%	-15%

(continued)
SMILES,Vaccinia Venus,VACV mCherry inh
CCc1cc(C(=O)Nc2c(C)nn(Cc3ccc(C)cc3)c2C)no1,-5%,-7%
O=C(NC(Cc1ccccc1)C(=O)O)/C(=C\c1ccco1)NC(=O)c1ccccc1 (centres undefined),1%,-6%
COc1ccc(CCNc2nc(-c3cccnc3)nc3ccccc23)cc1OC,?,-7%
COC(=O)C1=C(c2ccccc2)c2ccccc2S(=O)(=O)N1CC(=O)Nc1cccc(C(C)=O)c1,-15%,-9%
COc1cccc(N2CCN(S(=O)(=O)c3cc(Br)cc4c3N(C(=O)C3CC3)CC4)CC2)c1,1%,-9%
CSc1cccc(NC(=O)Nc2ccccc2OCc2cc(=O)n3cc(C)ccc3n2)c1,-15%,-16%
O=C(NC(=S)Nc1ccccc1N1CCOCC1)c1ccc(-c2ccccc2F)o1,0%,i
Cc1ccc(CCNC(=O)CCc2cn(Cc3ccccc3C)c3ccccc23)cc1,-7%,-14%
CCc1nonc1NC(=O)c1oc2ccc(Cl)cc2c1C,-21%,-11%
O=C(Nc1ccc(S(=O)(=O)N2CCCCC2)cc1)c1ccc(F)cc1,-12%,i
O/N=C/c1ccc(OCc2ccccc2)c(Br)c1,-17%,-29%
COc1ccc(OCC(=O)NCCS(=O)(=O)N2CCN(c3cccc(Cl)c3)CC2)cc1,-10%,-6%
COc1ccccc1OCc1nc(-c2ccc([N+](=O)[O-])cc2)no1,-12%,-6%
CCc1cccc2c(C(=O)CN3C(=O)NC(C)(c4cccc5ccccc45)C3=O)c[nH]c12 (centres undefined),?,?
CC(C)c1c(C(=O)NCc2ccncc2)cnn1-c1nccc(-c2cccs2)n1,-6%,-8%
Cc1cc2c(c(=O)n1Cc1cccnc1)C(c1ccccc1)C(C#N)=C(N)O2 (centres undefined),6%,/
CCN(CC(=O)Nc1ccccc1OC)C(=O)c1cccc(-n2cccc2)c1,-7%,i
COc1ccccc1NS(=O)(=O)c1cc(NC(=O)c2cccnc2)ccc1N1CCCCC1,3%,i
COc1ccccc1-c1noc(-c2ccc(NC(C)C)c([N+](=O)[O-])c2)n1,-10%,-18%
COc1ccccc1CCC(=O)OCC(=O)c1c(N)n(CC(C)C)c(=O)n(C)c1=O,-12%,-1%
COc1ccccc1/C=C/C(=O)OCC(=O)Nc1cc(C(F)(F)F)ccc1N1CCOCC1,?,-16%
COc1ccc(Nc2cc(C)c3cc(NC(=O)c4cc(OC)cc(OC)c4)ccc3n2)cc1,?,-23%
CCOc1ccc(C(=O)Nc2ccc(N3CCN(C)CC3)cc2)cc1Br,?,/
c1ccc(-c2nc3ccccn3c2NC2CCCC2)nc1,7%,?
Cn1nc(C(=O)NCc2ccc(F)cc2)cc1C(=O)NCc1ccc(F)cc1,-16%,-10%
Cn1c(CCCOc2ccc(Cl)cc2Cl)nnc1SCC(=O)Nc1cccc(F)c1,-1%,-5%
CC1=NN(c2ccccc2)C(=O)C1c1ccccc1 (centres undefined),-14%,-16%
O=C(CN1CCN(c2ccc(O)cc2)CC1)Nc1ccc2c(c1)OCCO2,2%,-16%
CN(CC(=O)Nc1ccc(F)c(F)c1F)C(=O)CN1C(=O)C2CCCCC2C1=O (centres undefined),-1%,-5%
CN1/C(=C\C(=O)COC(=O)c2ccc([N+](=O)[O-])o2)C(C)(C)c2ccccc21,-4%,i
CCCCCCc1ccc(OCC(=O)OC)cc1OCC(=O)OC,-11%,-23%
N#CC1=C(N)Oc2n[nH]c(-c3cccs3)c2C1c1cccs1 (centres undefined),-18%,-15%
CC(=O)NN1C(=O)/C(=C\c2ccccc2)SC1=S,-7%,?
O=C(Cc1ccc(NS(=O)(=O)c2cccc(C(F)(F)F)c2)cc1)NCCN1CCOCC1,-15%,i
Cc1ccc(C(=O)NC(NCc2ccccc2)C(Cl)(Cl)Cl)cc1 (centres undefined),-5%,-15%
CSc1nnc2c3cc(C)ccc3n(Cc3ccccc3)c2n1,0%,0%
